Mtb H37Rv = Mycobacterium tuberculosis H37Rv growth inhibition, cell based, confirmatory dose response (AID 1949); most inactive calls were filed without a number and no value below 0 was filed; one-dose inhibition, % at 10 µg/mL; IC50 in µg/mL for titrated hits; hit rate 1.6% among 100,000;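 active means confirmed in a dose series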;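 further: bacteria grown 7 days with compound before Alamar blue readout; 0% = untreated bacteria and 100% = reference antibiotic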
* hit, by the source's call; i = inactive. These rows are one share of the data; rates above refer to the full screens.

SMILES	Mtb H37Rv
O=C(CCN1C(=O)C2C3C=CC(C4CC34)C2C1=O)OCC(=O)c1ccccc1 (stereo not given)	i
CC1CN(c2nc(N3CCCC3)nc3ccccc23)CC(C)N1 (stereo not given)	i
Cc1cc(OCC(=O)Nc2ccccc2C#N)cc(C)c1Br	i
Cc1ccc(N2CCN(C(=O)c3ccc([N+](=O)[O-])c(C)c3)CC2)cc1Cl	2%
CCOC(=O)C1CCN(C(=O)CN(c2ccccc2F)S(=O)(=O)c2ccc(C)cc2)CC1	i
COc1ccc(C)cc1NC(=O)CN(C)S(=O)(=O)c1ccc(Br)cc1	i
c1ccc(-c2noc(-c3ccccc3)n2)cc1	i
CC(=O)Nc1ccccc1N1CCN(C(=O)c2ccc(Cl)cc2)CC1	i
Cc1c(-c2cccc(Cl)c2)nc2ccccc2c1C(=O)Nc1ccc(C(N)=O)cc1	5%
S=c1nc2ccccc2c2nc(-c3cccnc3)[nH]n12	1%
O=C(O)CSc1nc(-c2cccs2)cc(C(F)(F)F)n1	i
S=C(c1cn(Cc2ccc(Br)cc2)c2ccccc12)N1CCCC1	i
Cc1ccc(S(=O)(=O)N2CCCC(C(=O)NCCC(C)C)C2)cc1 (stereo not given)	i
Cc1cc(=O)[nH]c2c1c(=O)[nH]n2C1CCCCCC1	i
CCOc1cc(CNC(CC)CO)ccc1OCC(=O)Nc1cccc(C(F)(F)F)c1 (stereo not given)	1%
CCC(C)NC(=O)c1cc(Cl)ccc1OC (stereo not given)	i
Cc1nn(C(=O)c2nn(C)cc2Cl)c(C)c1I	1%
Cc1cccc(NC(=S)N2CCC(O)CC2)c1C	i
O=C1CC(N2CCN(c3ccccc3O)CC2)C(=O)N1c1cc(Cl)cc(Cl)c1 (stereo not given)	0%
O=C(NCc1cccnc1)C(=O)NC1CCCC1	i
CCc1c(C)nc(N)nc1N1N=C1SCCOc1ccc(C)cc1	i
COc1ccc(CCN2C(=O)NC(NC(=O)CCc3ccccc3)(C(F)(F)F)C2=O)cc1OC (stereo not given)	i
COc1ccc(CN2CCN(S(=O)(=O)c3ccc(Cl)cc3)CC2)cc1OC	i
CC1(C)NC(=O)N(CCCOc2ccccc2-c2ccccc2)C1=O	i
COC(=O)c1ccc(Cl)c(NC(=O)c2ccc(F)cc2)c1	i

Next part.
SMILES	Mtb H37Rv
COc1ccc(CCC(=O)Nc2ccc(F)c(F)c2)cc1	i
Cc1ccc(-c2nc(N3CCN(C)CC3)c3ccccc3n2)cc1	i
O=C1c2cccc3cccc(c23)N1Cc1ccc(F)cc1	i
Cc1nnc(Nc2ccc(C(=O)Nc3c(Cl)cccc3Cl)cc2)c2ccccc12	i
O=C(CSc1nc(-c2ccccc2)cc(=O)[nH]1)NC1CCCCCC1	i
Cc1ccc(-c2nnc(SCC(=O)Nc3ccc([N+](=O)[O-])cc3)o2)cc1	i
Fc1ccccc1N1CCN(Cc2nc(-c3ccccc3)no2)CC1	i
CCOC(=O)c1cc(-c2ccccc2)sc1NC(=S)Nc1cnccn1	i
O=c1cc(O)nc(SCc2ccccc2Cl)[nH]1	i
COC(=O)C1=C(C)N(C)C(C)=C(C(=O)OC)C1c1ccncc1	i
Cc1ccc(C)c(NS(=O)(=O)c2ccc(NS(=O)(=O)c3ccc(Br)s3)cc2)c1	i
O=C(Cc1cccc2ccccc12)NCC1(c2ccccc2)CCOCC1	i
CCC(C)c1ccc(NC(=S)N2CCN(C(=O)C3CCCO3)CC2)cc1 (stereo not given)	i
CN1CCN(C(=O)c2ccc(I)cc2)CC1	i
Cc1cc2nc(-c3cccc(NC(=S)NC(=O)c4ccco4)c3)oc2cc1C	1%
Cc1cc(C)nc(/N=C(/N)Nc2ccc(OCc3ccccc3)cc2)n1	4.6µg/mL*
O=C(CN1C(=O)c2ccccc2C1=O)NC(=S)Nc1ccccc1	i
CCCC(=O)Nc1ccccc1C(=O)O	40%
Cc1ccc(NC(=O)C2CCN(C(=O)c3ccc(Cl)cc3Cl)CC2)cc1	i
COc1cccc(Nc2nc(=O)[nH]nc2C)c1	i
COC(=O)c1cccc(Oc2ncnc3sc(-c4ccccc4)cc23)c1	i
COc1ccc(Cl)cc1-c1n[nH]c(=S)n1-c1ccc(C)cc1	i
CCn1c(Cc2ccc(OC)cc2)nnc1SCC(=O)Nc1ccc(Cl)c(C(=O)OC)c1	i
Cc1ccc(OCC(O)CN2CCN(Cc3ccccc3)CC2)c(C)c1 (stereo not given)	2%
O=C(CCc1ccc(S(=O)(=O)NC2CCCCC2)cc1)Nc1ccc(Br)cc1F	i

A stretch from further up:
SMILES	Mtb H37Rv
Cc1ccc(NC(=O)C2CCN(C(=O)c3ccc(Cl)cc3Cl)CC2)cc1	i
COc1cccc(Nc2nc(=O)[nH]nc2C)c1	i
COC(=O)c1cccc(Oc2ncnc3sc(-c4ccccc4)cc23)c1	i
COc1ccc(Cl)cc1-c1n[nH]c(=S)n1-c1ccc(C)cc1	i

The listing continues.
SMILES	Mtb H37Rv
CCC(O)(C#CCN1CCCCC1)CC	i
Cc1ccc(C(=O)O)cc1NC(=O)c1cccc(Cl)c1	i
NC(=O)c1c(NC(=O)Nc2ccccc2)sc2c1CCCCC2	i
Cc1ccc(N(CC(=O)N2CCC(Cc3ccccc3)CC2)S(C)(=O)=O)cc1C	i
COc1cc(OC)c(C(=O)Nc2ccc3c(c2)OCCO3)cc1OC	i
N#C/C(=C/c1ccc[nH]1)c1ccc(Cl)cc1	i
CCOc1cc(S(=O)(=O)NCC2CCCO2)ccc1F (stereo not given)	i
O=C(OCc1c(Cl)cccc1Cl)c1ccncc1	i
COc1ccc(Cl)cc1NC(=O)C1CCN(S(C)(=O)=O)CC1	i
CN(c1ccc(C(=O)Nc2ccc3c(c2)OCCO3)cc1)S(C)(=O)=O	i
Cc1ccc(CC(=O)Nc2ccc(C(N)=O)cc2)cc1	i
COc1ccc(CC(=O)NCc2ccc(Cl)c(Cl)c2)cc1	3%
CC(C)(C)C(=O)NC(=S)Nc1ccc(F)cc1	i
O=C(O)C1CCCCC1C(=O)NCCCc1ccccc1 (stereo not given)	i
CCOc1ccccc1C(=S)N1CCN(CC)CC1	i
N#Cc1ccc(N2CCOCC2)c(F)c1	i
Clc1ccc(CNCc2ccco2)cc1	i
COC(=O)c1sc(NC(=O)c2cccc([N+](=O)[O-])c2C)c(C(=O)OC)c1C	0%
CC(C)Cn1c(CCc2ccccc2)nnc1SCC(=O)Nc1cc(Cl)cc(Cl)c1	14%
Nc1nc(SCC(=O)c2ccc(Oc3ccccc3)cc2)n[nH]1	i
COC(=O)N1CC(c2ccccc2)CC1=O (stereo not given)	i
CSc1cccc(NC(=O)c2ccc(N(C)S(=O)(=O)c3ccc(C)cc3)cc2)c1	11%
COc1c(C)cccc1C(=O)NC(=S)Nc1cccnc1	i
O=C(Nc1nnc(SCc2ccccc2F)s1)c1ccccc1Br	i
COc1ccc(OC(=O)c2cccc(S(=O)(=O)N(C)C)c2)cc1	i

Ordered by count of non-hydrogen atoms (highest first): part of the list above
SMILES	Mtb H37Rv
CSc1cccc(NC(=O)c2ccc(N(C)S(=O)(=O)c3ccc(C)cc3)cc2)c1	11%
COC(=O)c1sc(NC(=O)c2cccc([N+](=O)[O-])c2C)c(C(=O)OC)c1C	0%
COc1ccc(OC(=O)c2cccc(S(=O)(=O)N(C)C)c2)cc1	i
O=C(O)C1CCCCC1C(=O)NCCCc1ccccc1 (stereo not given)	i
CCOc1cc(S(=O)(=O)NCC2CCCO2)ccc1F (stereo not given)	i
O=C(OCc1c(Cl)cccc1Cl)c1ccncc1	i
N#C/C(=C/c1ccc[nH]1)c1ccc(Cl)cc1	i
CCC(O)(C#CCN1CCCCC1)CC	i

New compounds follow:
SMILES	Mtb H37Rv
CCCCOc1ccc(NC(=O)c2ccccc2F)cc1	i
CCOC(=O)c1cnc2c(Cl)cccc2c1NCc1ccco1	6%
COC(=O)c1ccc(CSc2nnc(-c3ccccc3)o2)o1	i
CCOC(=O)c1sc(NC(=S)NC(=O)c2ccc(OCC)c(Cl)c2)c(C(=O)OCC)c1C	i
O=C1CC(N2CCCCC2)C(=O)N1c1ccc(Cl)c(F)c1 (stereo not given)	i
CC(=O)c1ccc2c3ccccc3n(C)c2c1	8%
COc1ccc(C)cc1S(=O)(=O)Nc1ccccc1SC	i
O=C(CC12CC3CC(CC(C3)C1)C2)Nc1ccncc1	40%
CCOc1ccccc1NC(=O)CC1NCCNC1=O (stereo not given)	i
O=C(Cn1cnc2ccccc2c1=O)N1CCN(Cc2ccccc2)CC1	i
Cc1cc(OCC(=O)NCCO)cc(C)c1Cl	i
CCN(CC)C(=O)c1ccc(SC)cc1OC	i
c1ccc2c(c1)nc1n2CCN1CCNC1CCCCC1	i
Cn1nnnc1SC1CC(=O)N(c2ccccc2)C1=O (stereo not given)	i
Cc1cc(C(F)(F)F)nn1CC(=O)NCc1ccco1	i
O=C1CCC([N+](=O)[O-])C(c2ccccc2F)N1 (stereo not given)	1%
CCC(=O)Nc1ccc(OC)cc1[N+](=O)[O-]	2%
COC(=O)c1cccc(NC(=S)NC(=O)COc2ccccc2C(C)C)c1	i
CCOC(=O)c1nnn(-c2nonc2N)c1CN1CCN(CCO)CC1	i
CCOC(=O)c1ccc(NC(=O)c2ccc(C(C)C)cc2)cc1	i
Cc1nn(S(=O)(=O)N2CCOCC2)c(C)c1Br	i
COc1nc(C)ccc1-c1noc(-c2ccccc2Br)n1	2%
CC(C)(C)NS(=O)(=O)c1ccc(NC(=O)C2CCCO2)cc1 (stereo not given)	i
CN=C(NS(=O)(=O)c1ccccc1)c1ccccc1F	i
CCc1c(O)nc(SCCN(CC)CC)[nH]c1=O	i

Further entries:
SMILES	Mtb H37Rv
CC(C)OC(=O)c1ccc(NC(=O)Cc2cccc3ccccc23)cc1	i
Cc1ccc(C(=O)N/C(N)=N/c2nc3ccccc3s2)cc1	i
O=C(NNC(=O)c1ccc(NC(=O)c2ccccc2)cc1)c1ccc(F)cc1	i
Cc1nc(Nc2nc(C)c3ccccc3n2)[nH]c(=O)c1CCC(C)C	i
CN1CCC(OC(=O)c2ccc(I)o2)CC1	i
COc1ccc(CSc2nc3c(c(=O)n(C)c(=O)n3C)n2C)cc1[N+](=O)[O-]	4%
CCCC(=O)Nc1ccc(NC(=S)NC(=O)c2ccc(C)c(C)c2)cc1	i
CCOc1ccc(-c2cc(C(=O)OC)c3ccccc3n2)cc1	i
CCc1ccccc1OCC(=O)Nc1nnc(C)s1	i
Cc1c(C(=O)NCc2ccccc2)oc2ccc(F)cc12	7%
CCN1CCN(S(=O)(=O)c2ccc(Cl)c(C(F)(F)F)c2)CC1	i
COC(=O)c1ccccc1NC(=O)CN(c1ccccc1)S(C)(=O)=O	i
CN1C2=C(C(=O)CCC2)C(c2ccc(OCc3ccc([N+](=O)[O-])cc3)c(Cl)c2)C2=C1CCCC2=O	i
COc1ccc(CNC(=O)C(C)c2ccc([N+](=O)[O-])cc2)cc1 (stereo not given)	6%
O=c1[nH]cnc2sc(-c3ccccc3)cc12	i
COC(=O)Nc1nc2ccc(OC)cc2s1	i
COc1ccccc1NC(CNS(=O)(=O)c1ccccc1)c1ccccc1 (stereo not given)	i
Cc1ccc(S(=O)(=O)NCCc2ccccc2)cc1C(N)=O	i
COc1cc(-c2nnc3n2C(C)(C)Cc2ccccc2-3)cc(OC)c1OC	i
O=C(COc1ccc2ccccc2c1Br)Nc1ccncc1	i
COC(=O)c1sccc1NC(=O)c1cc(C)oc1C	i
CC(=O)C1=C(C)NC(=S)NC1/C=C/c1ccccc1 (stereo not given)	i
O=C(c1sc2cc(Cl)ccc2c1Cl)N1CCN(c2ccc([N+](=O)[O-])cc2)CC1	i
O=S(=O)(c1ccccc1)n1ccc2ccccc21	2%
CCOC(=O)COc1ccc(S(=O)(=O)NCCC2=CCCCC2)cc1	i

The listing continues:
SMILES	Mtb H37Rv
CC1CCCN(CCOCCOc2ccc(Br)cc2)C1 (stereo not given)	i
O=S(=O)(NCc1ccccn1)c1ccc(I)cc1	8%
COc1ccc(OC)c(S(=O)(=O)Nc2ccc(C(=O)O)cc2)c1	i
Cc1cccc(OCC(=O)Nc2cc(Cl)c(O)c(Cl)c2)c1	0%
O=C(CSc1nnc(-c2ccncc2)n1Cc1ccccc1)Nc1ccc(Cl)cc1	i
COc1c(S(=O)(=O)N2CCN(c3ccccc3F)CC2)ccc(Cl)c1Cl	i
COc1cccc(C2c3c(oc4cc(C)c(C)cc4c3=O)C(=O)N2Cc2ccccc2Cl)c1 (stereo not given)	i
CC(C)n1c(Nc2ccccc2)nc2ccccc21	3%
Cc1ccc(N2CC(C(=O)Nc3ccc(S(=O)(=O)N4CCCC4)cc3)CC2=O)cc1 (stereo not given)	i
COc1ccc(Cl)cc1C(=O)Nc1cccc(Cl)c1	i
CCOc1ccccc1NC(=O)C12CC3CC(C1)CC(c1ccc(C)cc1)(C3)C2	4%
CC(C)COc1ccc(C(=O)Nc2nncs2)cc1	i
CC1=C(C(=O)N2CCCCC2)C(c2ccc([N+](=O)[O-])cc2)C2=C(CCCC2=O)N1 (stereo not given)	0%
CN(CCOc1ccc(Cl)c(Cl)c1)Cc1ccccc1	i
Cc1ccc(-n2nc(C)c(/C=C(\C#N)c3nc4ccccc4[nH]3)c2C)cc1C	8%
Cc1nc2ccccc2n1-c1ccccc1	4%
CN1CCN(C(=O)CSc2nc(-c3cccs3)cc(C(F)(F)F)c2C#N)CC1	i
CCOC(=O)c1cc(CC)sc1NC(=O)CCn1c(=O)oc2ccccc21	3%
COc1ccc(S(=O)(=O)N(CC(=O)Nc2cccnc2)c2ccccc2OC)cc1	i
O=C(Nc1ccc(NC(=O)c2ccc([N+](=O)[O-])o2)cc1Cl)c1ccco1	13%
